Screens from PubChem.
GALR2 agonist: GALR2 (human) receptor agonism; GALR2-expressing cells, agonist activation read-out; activation, %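 (tested at 5 µM)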; 140,000 tested, 0.48% active;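 active means above mean plus 3 SD of all compounds, about 5% in these data, not always enough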;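 further: 0% = vehicle buffer wells and 100% = reference agonist at full effect; tested in CHO reporter cells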
Target sequence (O43603 whole entry, looked up): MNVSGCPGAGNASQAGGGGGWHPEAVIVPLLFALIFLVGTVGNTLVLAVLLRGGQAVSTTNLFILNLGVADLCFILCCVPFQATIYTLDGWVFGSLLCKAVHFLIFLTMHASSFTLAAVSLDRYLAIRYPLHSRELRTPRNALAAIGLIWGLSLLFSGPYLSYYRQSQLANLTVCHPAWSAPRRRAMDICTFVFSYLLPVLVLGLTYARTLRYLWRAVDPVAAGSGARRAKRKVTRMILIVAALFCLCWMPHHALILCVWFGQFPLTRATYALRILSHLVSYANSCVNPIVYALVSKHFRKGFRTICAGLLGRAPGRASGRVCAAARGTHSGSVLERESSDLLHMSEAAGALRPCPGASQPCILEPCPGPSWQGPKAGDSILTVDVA
INS promoter inh: TRM-6 insulin promoter activity inhibition; 130,000 tested, 0.9% active; inhibition, % at 2 µM; TRM-6 cells (human fetal islet line), insulin promoter-eGFP reporter, imaging; reporter expression induced with tamoxifen;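 active means inhibition above the mean plus 3 SD, with well images judged a real hit on visual review, cut at about 60% in these data, passing the limit was not always enough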
RGS16-Gao HTS: RGS16-Galphao interaction regulator (human); bead-based flow cytometry RGS16-Galphao binding, fluorescence; actives lie on both sides; 220,000 tested, 0.38% active; binding response (% of control), % at 10 µM; O15492+P09471;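 active means below 25% or above 175%, edge rows of some plates excepted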;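 further: Galphao activated by GDP with aluminum fluoride before binding; 100% = wells without compound and 0% = beads without RGS; some results beyond the cut were filed as inactive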
Target sequence (O15492 whole entry, looked up): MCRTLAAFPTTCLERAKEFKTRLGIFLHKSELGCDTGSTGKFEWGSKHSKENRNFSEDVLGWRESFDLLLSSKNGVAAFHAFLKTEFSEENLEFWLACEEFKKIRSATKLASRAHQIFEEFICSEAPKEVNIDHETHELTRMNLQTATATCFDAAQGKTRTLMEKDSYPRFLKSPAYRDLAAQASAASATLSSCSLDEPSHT
Target sequence (P09471 whole entry, looked up): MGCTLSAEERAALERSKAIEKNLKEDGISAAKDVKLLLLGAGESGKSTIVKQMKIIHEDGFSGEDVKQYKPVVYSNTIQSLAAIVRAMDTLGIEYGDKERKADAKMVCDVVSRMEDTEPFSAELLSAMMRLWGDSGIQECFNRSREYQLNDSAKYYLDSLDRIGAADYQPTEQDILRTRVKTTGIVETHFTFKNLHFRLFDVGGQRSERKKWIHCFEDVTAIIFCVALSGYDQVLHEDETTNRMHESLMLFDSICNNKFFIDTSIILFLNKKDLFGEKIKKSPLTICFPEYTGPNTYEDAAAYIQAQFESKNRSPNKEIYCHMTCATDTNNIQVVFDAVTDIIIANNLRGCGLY
HSV replic up: increases HSV replication in cells. HSV replication augmentation in cells, fold increase. maximum fold increase. 220,000 tested, 0.005% active;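 active means peak rise of 1.5-fold or more in the series; tested in PC3 cells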;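 further: first round at 10 µM; read as green reporter fluorescence; hits show the peak of a series up to 25 µM; 1 = signal of infected wells without compound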
PKD1 kinase inh: blocks activity of human protein kinase D1 | Q15139 | AID 797 | PKD1 kinase fluorescence polarization assay | inhibition, %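 (about 10 µM by stock and volumes)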 | 200,000 tested, 0.056% active;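 active means inhibition of 50% or more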;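 further: controls were vehicle for no effect and a reference inhibitor for full effect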
INS promoter inh cell count: recorded beside INS promoter inh, whose call it bears; normalized cell count, %; measured here: cell count, toxicity; reference of the scale not given here;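 cells exposed to compound for 48 h; stained nuclei by imaging scaled within each plate; lower means fewer cells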
HSV replic up primary fold: also measured in HSV replic up; calls as there; fold increase; compound at 10 µM; measured here: primary screen fold increase 10 uM; tested in PC3 cells;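 GFP signal in the first replicate; 1 = infected wells without compound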
An asterisk follows results filed as active; i = inactive; . = not tested or not shown. Not a hit list; overall some 1.3% were active at least once.

Molecule	HSV replic up	INS promoter inh	RGS16-Gao HTS	HSV replic up primary fold	PKD1 kinase inh	INS promoter inh cell count	GALR2 agonist
CCOc1ccc(NC(=O)Nc2cc(C(C)C)c(O)cc2C)cc1	i	.	97	1.1	.	.	.
c1csc(C(c2nnnn2C2CCCCC2)N2CCN(c3nc4ccccc4s3)CC2)c1 (centres undefined)	i	50	101	1.1	-6	49	-2.8
Cc1cc(C(C)(C)C)ccc1OCCN(C)C	i	65	78	0.98	-3	119	-2.0
CCOC(=O)c1ccc(NC(=O)c2nc[nH]c2C(=O)NC)cc1	i	.	97	0.84	.	.	.
O=[N+]([O-])c1ccc(C[n+]2cccc3ccc4cccnc4c32)cc1	i	.	100	0.96	-3	.	.
Cc1cc(-c2cc(C(=O)NCc3ccccc3)on2)nc(NC2CCCC2)n1	i	.	93	0.69	.	.	.
Cn1nc(-c2ccc(C(=O)Nc3cccc(Cl)c3)cc2)c2ccccc2c1=O	i	40	102	1	-7	98	-3.2
Cc1cccc(CC(=O)OCn2nnc3ccccc3c2=O)c1	i	.	100	1	7	.	-0.3
Nc1nc2c(s1)CCCCCCCCCC2	i	.	91	1.1	.	.	.
CCCCNS(=O)(=O)c1ccc2nc(SCC(=O)c3ccc(C#N)cc3)[nH]c2c1	i	-50	95	1.1	-10	124	-0.9
COC(=O)Nc1ccc(S(=O)(=O)N2CCCC(C(=O)N3CCCCC3)C2)cc1 (centres undefined)	i	42	114	0.96	-4	52	.
Cc1cc(C(=O)NCCC2=CCCCC2)ccc1[N+](=O)[O-]	i	-29	100	0.88	6	105	.
COc1cc(/C=C/C(=O)O)cc(S(=O)(=O)NCCCO)c1OC	.	.	100	.	-14	.	-2.4
CCOC(=O)c1ccc(NC(=O)CS(=O)(=O)c2cn(CC)c3ccccc23)cc1	i	.	102	1	-6	.	-1.5
COC(=O)c1sc(NC(=O)c2cccc([N+](=O)[O-])c2)c(C(N)=O)c1C	i	-11	105	1	-7	116	1.5
COC(=O)c1cn(C(=O)c2ccc(C)c(C)c2)c2ccccc12	i	-6	110	0.87	-3	86	-2.2
C/C=C(\C)CN1CCc2cc(OC)c(OC)cc2C1	i	-256	99	1	-11	73	-0.7
N#CCCN(CCC#N)c1nnc(-c2ccccc2)s1	i	-61	111	0.8	-5	88	3.1
CCOc1ccc2c(c1)-c1c(ssc1=S)C(C)(C)N2C	i	-50	103	0.93	2	73	-1.0
CCOc1cc(CNc2ncc(-c3ccc(OC)cc3)n2C)ccc1O	i	-13	99	0.87	-3	100	-3.1
COc1ccc(C(=O)OCC(=O)NCc2ccc3c(c2)OCO3)cc1[N+](=O)[O-]	i	.	104	0.84	1	.	-0.8
Cc1ccc(SCCC(=O)N(C)C)cc1	i	47	103	0.9	-2	96	-0.1
CCCCOC(=O)C1=C(C)Nc2ncnn2C1c1cccc(OC)c1 (centres undefined)	i	.	99	0.77	-7	.	-0.8
O=C(Nc1ccc(-n2cnnn2)cc1)C1CCC1	i	.	103	0.94	-6	.	0.6
Cc1cc(NC(c2ccc(Cl)cc2)c2ccc3cccnc3c2O)no1 (centres undefined)	i	42	97	0.59	0	34	-0.6
Cc1ccc(C)c(SCc2noc(C(=O)NCC3CCCO3)c2C(=O)O)c1 (centres undefined)	i	-19	101	1	-25	235	-4.2
COc1ccc(CNC(=O)C(c2ccco2)N(Cc2ccccc2)C(=O)Cc2cccs2)cc1 (centres undefined)	i	12	105	1.1	3	81	-1.2
Cc1ccc(NC(=O)COC(=O)[C@H](C)NC(=O)c2ccccc2)cc1S(=O)(=O)N1CCOCC1	i	.	100	1.1	.	.	.
O=C(CSc1nnc(-c2c[nH]c3ccccc23)o1)N(Cc1ccccc1)c1ccc(F)cc1	i	-3	100	0.7	-2	154	-0.5
COC(=O)C1=C(C)N(C)C(C)=C(C(=O)OC)C1c1ccc(C(=O)OC)cc1	i	-19	103	0.85	-4	96	-3.0
COc1ccc(CNC(=O)CCS(=O)(=O)Cc2cccc(Cl)c2)c(OC)c1	i	-33	99	1.1	0	53	.
O=C(NCc1ccc(C(F)(F)F)cc1)C1CC(c2cccc(F)c2)=NO1 (centres undefined)	i	.	94	0.99	.	.	.
N#Cc1c(SCc2ccccc2)sc(C(=O)c2ccccc2)c1N	i	-86	98	0.82	-2	70	-2.6
O=C1CC(c2ccco2)CC(O)=C1C=Nc1cc(Cl)ccc1O (centres undefined)	i	.	48	0.75	-2	.	-2.1
COC(=O)C1=C(C)N(C(C)c2ccccc2)C(=O)/C1=C\c1ccco1 (centres undefined)	i	-53	98	0.98	-1	96	.
O=C(NC1CC1)c1ccc(CS(=O)(=O)c2c(Cl)cccc2Cl)o1	i	.	103	1	12	.	-2.2
CCCCCc1c(C)nc(NCc2ccccc2)[nH]c1=O	i	9	107	0.78	4	165	1.4
Cc1ccc(NC(=O)CSc2nnc(-c3cnccn3)n2Cc2ccco2)cc1C	i	.	101	0.85	1	.	0.5
Cc1oc(=O)c(NC(=O)c2cccc(Cl)c2)cc1C(=O)c1ccccc1	i	-29	82	0.55	-10	107	-2.9
O=C(CSc1ncnc2ccccc12)N1CCCC1	i	.	98	0.93	-11	.	-1.9
O=C(Nc1ccc(F)cc1)C(Sc1nc2ccccc2[nH]1)c1ccccc1 (centres undefined)	i	-88	102	0.76	1	118	-0.6
CN(C(=O)c1cccc(Nc2ccc(-c3ccc4c(c3)OCCO4)nn2)c1)C1CCCCC1	i	19	74	0.83	4	77	-1.9
CSc1nc2n(n1)C(c1cccs1)C1=C(CCCC1=O)N2 (centres undefined)	i	.	86	0.99	5	.	.
CC(=NCC1CCCO1)c1c(O)[nH]c(=O)[nH]c1=O (centres undefined)	i	-7	97	0.93	-2	99	-2.3
CCOC(=O)C1CCCN(C(=O)CSc2ccccc2)C1 (centres undefined)	i	.	108	0.93	1	.	-2.4
Cc1onc(-c2ccccc2Cl)c1C(=O)N1CCOC12CCN(c1cccc(F)n1)CC2	i	.	97	0.97	-1	.	.
O=C(O)c1ccc(S(=O)(=O)N2CCCCCC2)cc1	i	-42	99	0.93	0	104	-2.7
Cc1ccnc(NC2(C(F)(F)F)N=C(c3ccccc3)NC2=O)c1 (centres undefined)	i	30	96	1.1	-3	86	-1.8

6 records drawn at random from those above:
Molecule	HSV replic up	INS promoter inh	RGS16-Gao HTS	HSV replic up primary fold	PKD1 kinase inh	INS promoter inh cell count	GALR2 agonist
CC(=NCC1CCCO1)c1c(O)[nH]c(=O)[nH]c1=O (centres undefined)	i	-7	97	0.93	-2	99	-2.3
CN(C(=O)c1cccc(Nc2ccc(-c3ccc4c(c3)OCCO4)nn2)c1)C1CCCCC1	i	19	74	0.83	4	77	-1.9
Cc1ccnc(NC2(C(F)(F)F)N=C(c3ccccc3)NC2=O)c1 (centres undefined)	i	30	96	1.1	-3	86	-1.8
Cc1onc(-c2ccccc2Cl)c1C(=O)N1CCOC12CCN(c1cccc(F)n1)CC2	i	.	97	0.97	-1	.	.
O=C(O)c1ccc(S(=O)(=O)N2CCCCCC2)cc1	i	-42	99	0.93	0	104	-2.7
O=C(Nc1ccc(F)cc1)C(Sc1nc2ccccc2[nH]1)c1ccccc1 (centres undefined)	i	-88	102	0.76	1	118	-0.6

More entries follow:
Molecule	HSV replic up	INS promoter inh	RGS16-Gao HTS	HSV replic up primary fold	PKD1 kinase inh	INS promoter inh cell count	GALR2 agonist
CCN(CC)S(=O)(=O)c1ccc(F)c(C(=O)NCCC(C)C)c1	i	-438	108	0.97	-2	88	-1.2
COC(=O)c1ccc(CSc2n[nH]c(-c3ccccc3)n2)o1	i	-53	100	1.1	0	81	.
COC(=O)CNC(=O)c1cc(OC)cc(OC)c1	i	.	105	0.95	-7	.	.
CCc1cc(C(c2ccncc2)N2CCN(C)CC2)c(NC(=O)c2ccccc2)s1 (centres undefined)	i	.	105	0.87	7	.	0.0
CCNc1c2c3c(cccc3n(C)c1=O)C(=O)c1ccccc1-2	.	-171	115	.	-15	67	-1.4
COc1ccccc1CNC(=O)CSc1nc(N)c(C#N)c(-c2cccs2)c1C#N	i	-49	104	1	1	35	0.1
CCOCC(=O)Nc1nc2ccc(S(C)(=O)=O)cc2s1	i	7	96	1.1	6	37	0.2
CCCc1cc(N2CCCC(C(=O)NCc3ccc4c(c3)OCO4)C2)n2ncnc2n1 (centres undefined)	i	.	.	1.1	-9	.	-0.8
COc1ccc(NS(=O)(=O)c2cnc[nH]2)cc1	i	.	93	1	-3	.	.
O=C(CCNc1ccc(F)cc1)c1cccc([N+](=O)[O-])c1	i	33	106	0.97	-8	89	-1.2
CCCCc1c(C)nc2ccc(Br)cc2c1SC(N)N	i	.	106	0.97	2	.	.
CN(C)C(=O)CCN1CCOCC1	i	-43	108	0.95	-1	70	-0.6
O=C(CSc1ncnc2c1nnn2-c1ccc(F)cc1)NCC1CCCO1 (centres undefined)	i	21	101	0.85	2	66	-1.1
Cc1ccc(S(=O)(=O)Nc2nc(C)c(NC(=O)Nc3ccc(Cl)cc3Cl)s2)cc1	i	.	104	0.87	3	.	-3.0
O=C(COC(=O)c1cccnc1Cl)Nc1ccc2c(c1)OCCO2	i	43	101	0.94	-4	86	.
CCOc1ccc(C(=O)NC(=S)Nc2ccccc2N2CCOCC2)cc1Br	i	8	129	0.95	7	52	-1.0
COc1ccc(OC)c(NC(=O)CSc2nnc(CNC(=O)c3ccco3)o2)c1	i	-16	104	1	5	144	-1.9
CCCS(=O)(=O)C(=C(Nc1ccccc1)Nc1ccccc1)S(=O)(=O)CCC	i	-4	102	0.98	-3	43	-1.8
CN(C)S(=O)(=O)c1cccc(C(=O)c2nccn2C)c1	i	-36	112	0.88	-6	146	.
CCC(C)(C)NC(=O)Cc1ccc(Cl)cc1	i	.	102	0.98	9	.	.
C=CCn1c(SCC(=O)NCc2ccccc2)nnc1-c1cc(Br)ccc1O	i	-13	97	0.86	2	112	0.2
O=C(Nc1ncc(Cc2cccc(Cl)c2)s1)C1=NCCN1	i	.	155	0.96	-3	.	-2.9
Cc1cc(C)c(C)c(S(=O)(=O)N2CCC(C(=O)Nc3ccccc3N3CCOCC3)CC2)c1C	i	-13	100	1.1	-24	132	-1.2
Cc1cccc(N2CCN(C(=O)Cc3ccc(-n4c(=O)[nH]c5ccsc5c4=O)cc3)CC2C)c1 (centres undefined)	i	8	49	0.83	-12	143	0.3
N=c1n(CC(=O)c2cccc([N+](=O)[O-])c2)c2ccccc2n1Cc1ccccc1	i	0	103	0.9	4	94	.
CC(C)(C)C(=O)[C@@H]1[C@@H]2C(=O)N(C3CCCCC3)C(=O)[C@@H]2[C@H]2c3ccccc3C=CN12	.	-22	.	.	-7	154	-2.5
O=C(CSc1nnc(NC(=O)c2ccco2)s1)NC1CCCCC1	i	-18	90	0.93	-11	106	-2.8
O=C(Nc1ccc(Cl)cc1)Nc1cnccn1	i	.	102	0.91	-3	.	.
CCNS(=O)(=O)c1ccc(CCC(=O)Nc2cc(Cl)ccc2Oc2ccccc2)cc1	i	.	98	0.96	-8	.	-0.5
O=C(NCC1CCCN(C(=O)c2cscn2)C1)c1ccccc1Cl (centres undefined)	i	.	105	0.97	-7	.	.
